CtBP-E1A inh = qHTS Assay for Inhibitors of the CtBP/E1A Interaction. CtBP / adenovirus E1A interaction (AlphaScreen). AlphaScreen GST-E1A/His-CtBP binding, 1536-well; stronger effect = lower value; control for the full effect not named in the record. activity change, % (test concentration not listed). actives 0.49% (n = 340,000); in the data active means activity change below about -65%; inconclusive means about -30% to -65%; inactive means above about -30%; further: on the % scale 0 is the no-effect control and ±100 the full control effect; compound concentration not given in the record
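Protein mix (5X: 125 nM each GST-E1A, His-CtBP) was incubated with pinned compound 2 h at 37 deg C in dark, in 50 mM Tris pH 8.0 buffer with 300 mM NaCl. Glutathione donor and nickel acceptor beads followed; AlphaScreen signal read after 1 h.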
Sfp PPTase inh = qHTS Assay for Inhibitors of Bacillus subtilis Sfp phosphopantetheinyl transferase (PPTase). 4'-phosphopantetheinyl transferase ffp (Bacillus subtilis), Q9F4F7. Biochemical Sfp PPTase activity, qHTS. Potency, µM, inactives show max response, negative = inhibition, usual class: inhibitors. actives 3.5% (n = 310,000); active means well fitted inhibition curve with a large enough effect; inconclusive means small, poorly fitted or top-dose-only effect, or another doubt; inactive means no such curve, though single readings can be large or run the other way;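 further: the enzyme is Sfp with the accession as filed and its product quenches rhodamine fluorescence; potency means the concentration at half of the fitted maximal effect; 0% = enzyme reaction without inhibitor and -100% = no enzyme wells; top concentration of the series not given in the record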
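Sfp 15 nM + cpd, 15 min RT; start w/ rhodamine-CoA 5 uM, BHQ-2-YbbR 12.5 uM (final); 50 mM Hepes pH 7.6, 10 mM MgCl2, 0.01% NP-40, 0.01% BSA; read 525/598 nm at 0 and 30 min.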
PINK1 modulator = A Quantitative High throughput Screen to Identify Chemical Modulators of PINK1 Expression. PINK1 immunofluorescence, high-content cytometry, 24 h. Potency, µM (highest dose often 76.6 µM), without a hit: at the top dose activation (PINK1 increase), actives largely listed as activators. actives 0.2% (n = 410,000); active = well fitted activation curve with a large enough effect; inconclusive = small, poorly fitted or top-dose-only effect; inactive = flat fitted curve, though single readings scatter; cell line not stated here;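 further: potency means the concentration at half of the fitted maximal effect; % of control where 0% means no effect; nearly all actives have a fitted effect of over 65% in size; a mitochondrial uncoupler was the plate control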
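Measures PINK1 amount and localization on or inside mitochondria by immunofluorescence. Stable cells get compounds at 5 concentrations for 24 hours before fixation and staining; CCCP controls included.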
Six1-Eya2 inh = qHTS Assay for Inhibitors of the Six1/Eya2 Interaction | Homeobox protein SIX1 (Homo sapiens) + Protein phosphatase EYA2 (Homo sapiens), … | activity change, % (concentration not given with the values) | actives 0.56% (n = 360,000) | AlphaScreen GST-Six1/His-Eya2 binding, biochemical; stronger effect = lower value; control for the full effect not named in the record; in the data active = activity change below about -65%; inconclusive = about -30% to -65%; inactive = above about -30%; further: on the % scale 0 is the no-effect control and ±100 the full control effect
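Six1/Eya2 binding was read as AlphaScreen signal after compounds were pinned into GST-Six1 plus His-tagged Eya2 (5X stock 250/500 nM) in pH 8.0 Tris/NaCl/TCEP buffer, beads added, then incubated 1 h, 37 C, dark.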
TRPV1 potentiator = HTS Assay for Compounds that Act as Potentiators of the Vanilloid Receptor 1. Transient receptor potential cation channel subfamily V member 1 (Homo sapiens), Q8NER1. TRPV1-expressing cells, Fluo-8 calcium influx, capsaicin EC20 potentiation; host cell line not named in the record; control for the full effect not named in the record. actives 0.02% (n = 320,000). AID 540277, 2011. potentiation, % at 8.33 µM; active means potentiation above 80%; inconclusive means 30% to 80%; inactive means below 30%; further: 0% is about no effect
Target sequence (Q8NER1 whole entry, looked up): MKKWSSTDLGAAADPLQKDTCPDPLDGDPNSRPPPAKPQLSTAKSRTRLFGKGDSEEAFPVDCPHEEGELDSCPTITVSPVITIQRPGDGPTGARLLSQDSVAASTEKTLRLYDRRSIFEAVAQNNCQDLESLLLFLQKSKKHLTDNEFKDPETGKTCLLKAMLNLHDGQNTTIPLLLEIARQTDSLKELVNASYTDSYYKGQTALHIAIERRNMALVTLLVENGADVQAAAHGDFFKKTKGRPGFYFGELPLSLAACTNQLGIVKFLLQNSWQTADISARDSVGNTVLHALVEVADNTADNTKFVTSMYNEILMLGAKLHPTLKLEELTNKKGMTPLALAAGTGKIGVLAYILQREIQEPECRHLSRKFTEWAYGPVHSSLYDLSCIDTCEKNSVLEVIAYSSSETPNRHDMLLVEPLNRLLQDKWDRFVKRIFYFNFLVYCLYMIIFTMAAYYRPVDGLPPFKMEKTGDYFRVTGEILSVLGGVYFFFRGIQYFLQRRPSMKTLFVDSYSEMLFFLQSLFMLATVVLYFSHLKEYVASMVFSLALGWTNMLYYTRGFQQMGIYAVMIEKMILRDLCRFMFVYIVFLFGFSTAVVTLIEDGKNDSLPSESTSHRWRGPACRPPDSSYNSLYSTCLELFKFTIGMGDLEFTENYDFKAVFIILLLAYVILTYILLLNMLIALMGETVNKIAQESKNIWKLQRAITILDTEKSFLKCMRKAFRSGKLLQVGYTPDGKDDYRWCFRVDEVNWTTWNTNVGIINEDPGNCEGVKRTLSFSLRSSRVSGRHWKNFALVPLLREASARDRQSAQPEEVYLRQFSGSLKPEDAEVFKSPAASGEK
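Fluo-8 calcium influx in TRPV1-expressing cells, kinetic read (ex 480/em 520 nm). Compound added and read 3 min for agonist activity, followed by capsaicin at EC20 final and 2 min further read for enhancement.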
D2 agonist = Beta-Arrestin HTS for Positive Allosteric Modulators of the Human D2 Dopamine Receptor: Agonists; DiscoveRx PathHunter D2 beta-arrestin, luminescence, 90 min; 100% = 57 uM dopamine signal; activation, % (test concentration not listed); actives 0.084% (n = 360,000); in the data active = activation above about 40%; inconclusive = about 15% to 40%; inactive = below about 15%; further: compound concentration not given in the record; the text of the record calls up to 30% inactive
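DiscoveRx PathHunter D2 beta-arrestin cells (2,100/well) attached overnight, then compound-stimulated 90 min at 37 C in HBSS/10 mM HEPES/0.1% Tween-20 buffer; beta-galactosidase complementation read by luminescence after 1 h at ambient temperature. Dopamine 57 uM final (EC100) as control.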
D2 PAM = Beta-Arrestin HTS for Positive Allosteric Modulators of the Human D2 Dopamine Receptor: Potentiators | D(2) dopamine receptor (Homo sapiens), P14416 | DiscoveRx D2 beta-arrestin cells, luminescence, 90 min; 100% = 57 uM dopamine signal | potentiation, % (test concentration not listed) | actives 0.23% (n = 360,000); active = potentiation of 50% or more; inconclusive = 30% to 50%; inactive = 30% or less;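 further: compound concentration not given in the record; tested on top of an EC20 dose of dopamine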
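PathHunter beta-arrestin assay in DiscoveRx D2 cells. Compounds were added with an EC20 of dopamine (50 nM final) for 90 min at 37 deg C. Luminescence was read 1 h after detection reagent, with 57 uM dopamine as the EC100 control.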
* = called active by the depositor; ? = inconclusive; . = no result given; & = joins results of further samples; [ ] = remark or other dose.

SMILES | CtBP-E1A inh | Sfp PPTase inh | PINK1 modulator | Six1-Eya2 inh | TRPV1 potentiator | D2 agonist | D2 PAM
COc1ccc(C2=NN(C(N)=S)C(c3ccccc3)C2)cc1 (centres undefined) | -7 | -15% | 3.0% | -21 | -2 | -2.7 | -3
CCCCCc1ccc(-c2nnc(N)s2)cc1 | 3 | 14% | 1.6% | -2 | -10 | -3.1 | -5
Cc1ccc(C)c(S(=O)(=O)N2CCN(C(=O)Cc3ccc(S(=O)(=O)N4CCOCC4)s3)CC2)c1 | -2 | . | -0.2% | -3 | -2 | 1.2 | 17
CCc1ccc(S(=O)(=O)N/N=C\c2cn(CC(N)=O)c3ccccc23)cc1 | 8 | 7% | 2.1% | 1 | 3 | -5.3 | 11
Clc1cccc(-c2nc3ccc(Br)cn3c2Cc2ccccc2)c1 | 10 | . | 1.1% | -1 | . | -5.6 | -5
COC(=O)c1c(NC(=O)c2ccccc2)sc2c1CC(C)(C)NC2(C)C | 6 | 16% | 0.8% | 0 | 5 | -5.9 | -6
CCc1nn(CC(=O)Nc2ccc(Br)c(C)c2)c(=N)s1 | 4 | 0% | -0.6% | -15 | 9 | -2.4 | -16
Cc1ccc(C(=O)COC(=O)c2nc(Cl)ccc2Cl)cc1 | 6 | . | 0.3% | 9 | . | -1.6 | -2
Cc1nnc(SCc2ccc(CC(=O)O)cc2)o1 | 1 | 21% | -0.7% | 3 | -2 | -3.5 | -12
CCOc1ccc(NC(=O)CN(C)C(=O)c2cc(-c3cccs3)nn2-c2ccccc2)cc1OCC | -6 | . | 3.9% | -19 | 13 | -5.3 | -22
Cc1ccc(Cc2nnc3n(-c4ccccc4)nc(C(=O)c4ccccc4)n3c2=O)cc1 | 2 | -1% | -0.6% | -6 | 9 | -3.7 | -8
COc1cc(C)c(NC(=O)COc2ccc3c(c2)CCC3)cc1OC | 2 | . | 4.5% | -6 | -11 | 3.7 | -20
CCCCCCCCCCCCN1[C@@H](CC(=O)O)c2cc(F)ccc2S1(=O)=O | -1 | . | 6.0% | 2 | . | 1.2 | -35
CC(=O)c1cn(CC(=O)Nc2ccccc2Cl)c2ccccc12 | . | 11% | 5.9% | 1 | -11 | 2.7 | -14
CN(CC(=O)NCCc1ccc(S(N)(=O)=O)cc1)CC(=O)Nc1ccccc1C(F)(F)F | -2 | . | -0.1% | -1 | . | -2.2 | -5
CCOC(=O)C1CCN(C(=O)c2ccc(OCC(=O)N3CCOCC3)c(OC)c2)CC1 | -5 | . | 2.5% | 7 | 4 | -2.5 | 1
O=C(NCc1cc(C(F)(F)F)ccc1Cl)c1cccc2c1C(=O)c1ccc(N3CCC(N4CCCCC4)CC3)cc1S2(=O)=O | -5 | . | -0.3% | -3 | . | 4.9 | .
O=C(NCc1ccccc1Cl)c1ccc[nH]1 | 1 | 23% | 0.8% | -4 | 17 | -4.5 | -8
CCOc1ccccc1/C=N/NC(=O)Cc1csc(Nc2cccc(C(F)(F)F)c2)n1 | -2 | 2% | -1.8% | -5 | 19 | -2.2 | -2
CC(C)C[C@H]1CNC(=S)N1C[C@H]1CCCN1C[C@H](CC(C)C)N1C[C@H](CC(C)C)N(CCc2ccccc2)C1=S | 0 | . | 4.9% | -12 | . | -7.4 | -8

Shown with tabs: part of the list above.
compound	CtBP-E1A inh	Sfp PPTase inh	PINK1 modulator	Six1-Eya2 inh	TRPV1 potentiator	D2 agonist	D2 PAM
COc1cc(C)c(NC(=O)COc2ccc3c(c2)CCC3)cc1OC	2	.	4.5%	-6	-11	3.7	-20
CCOC(=O)C1CCN(C(=O)c2ccc(OCC(=O)N3CCOCC3)c(OC)c2)CC1	-5	.	2.5%	7	4	-2.5	1
Cc1ccc(Cc2nnc3n(-c4ccccc4)nc(C(=O)c4ccccc4)n3c2=O)cc1	2	-1%	-0.6%	-6	9	-3.7	-8
O=C(NCc1ccccc1Cl)c1ccc[nH]1	1	23%	0.8%	-4	17	-4.5	-8
CN(CC(=O)NCCc1ccc(S(N)(=O)=O)cc1)CC(=O)Nc1ccccc1C(F)(F)F	-2	.	-0.1%	-1	.	-2.2	-5
CC(=O)c1cn(CC(=O)Nc2ccccc2Cl)c2ccccc12	.	11%	5.9%	1	-11	2.7	-14

Following part:
SMILES | CtBP-E1A inh | Sfp PPTase inh | PINK1 modulator | Six1-Eya2 inh | TRPV1 potentiator | D2 agonist | D2 PAM
CC(=O)c1ccc(-n2c(CCC(=O)O)ccc2-c2ccccc2)cc1 | . | 22% | -0.1% | 3 | 0 | 0.9 | 0
CCn1c(O)c(N=NC(=O)C(O)c2ccccc2)c2ccccc21 (centres undefined) | 24 | 3% | -0.2% | 6 | -11 | 1.3 | -1
O=C1c2ccccc2C(c2nnnn2-c2ccc3c(c2)OCCO3)N1CCc1c[nH]c2ccccc12 (centres undefined) | 2 | . | 1.0% | -6 | . | . | .
C/C(N)=C(/C#N)C(=O)COC(=O)c1cc(-c2cccc3ccccc23)nc2ccccc12 | 10 | 4% | 5.5% | 3 | -6 | -4.0 | -1
CCOC(=O)c1ccc(NC(=O)C(=O)NCc2ccco2)cc1 | -4 | 7% | -2.2%&1.8% | -2 | 2 | 5.7 | -3
COc1ccc(-c2cc(-c3ccccc3O)[nH]n2)cc1OC | -11 | 6% | 1.7% | -11 | -7 | 1.0 | 14
O=C1CCN(CCc2ccccc2)CCN1[C@H](CO)Cc1ccccc1 | -11 | 10% | -0.4% | -9 | -11 | -2.8 | -17
O=C(O)CC(C(=O)Nc1ccc(Cl)c(Cl)c1)C1CCCO1 (centres undefined) | 18 | 27% | -2.0%[38.3 µM] | 3 | 4 | 0.3 | -7
O=C1NC2(CCN(Cc3ccccc3)CC2)Oc2ccccc21 | . | -4% | 0.8% | 4 | -2 | -3.6 | -2
CC(C)C(O)(C#CCN1CCCCCC1)c1ccccc1 (centres undefined) | 6 | 14% | -0.5% | 1 | -12 | -4.4 | -13
Cc1ccccc1Cn1ccc(NC(=O)c2cnn3cccnc23)n1 | 12 | 6% | . | -1 | 2 | 0.4 | -2
CN(C)CCCNC(=S)/N=c1\sccn1Cc1ccccc1Cl | 8 | 8% | 0.4% | 17 | -36 | -1.8 | -11
Cc1ccccc1NC(=S)NC(=O)CCc1ccccc1 | 5 | -14% | 5.0%[38.3 µM] | 0 | -14 | 2.4 | 5
C[C@H]1CN([C@@H](C)CO)C(=O)CCCn2cc(nn2)CO[C@@H]1CN(C)C(=O)c1ccc(N2CCN(C)CC2)cc1 | 13 | . | -0.1% | 8 | . | -4.5 | -6
Cc1cc(N/N=C/c2ccc(O)cc2)nc(NS(=O)(=O)c2ccccc2)n1 | ? | 3% | 7.5% | -73* | 1 | 5.8 | 23
CCOc1ccc(Cl)cc1S(=O)(=O)N1CCC(C(=O)NCc2ccco2)CC1 | -1 | 9% | 3.3% | -12 | -5 | -1.3 | -5
O=C(O)C1=CCC=CC1C(=O)O (centres undefined) | -12 | . | 3.1% | ? | . | -4.4 | -13
Fc1ccccc1N1CCN(Cc2cccnc2)CC1 | 5 | -4% | 0.2% | 1 | -3 | ? | 1
O=C1C(c2ccc(F)cc2)N(Cc2ccc3c(c2)OCO3)C(=O)CN1C1CCCCC1 (centres undefined) | -6 | -5% | 3.9%[38.3 µM] | -2 | -11 | -2.5 | -14
C/C(=N\NC(=O)c1ccncc1)c1ccc(NC(=O)c2ccc(Cl)cc2)cc1 | 2 | 2% | 1.7% | 2 | -11 | 3.9 | 0

Two of these compounds in a different format.
Value order – CtBP-E1A inh	Sfp PPTase inh	PINK1 modulator	Six1-Eya2 inh	TRPV1 potentiator	D2 agonist	D2 PAM
- COC(=O)c1c(NC(=O)c2ccccc2)sc2c1CC(C)(C)NC2(C)C
    6	16%	0.8%	0	5	-5.9	-6
- O=C(NCc1cc(C(F)(F)F)ccc1Cl)c1cccc2c1C(=O)c1ccc(N3CCC(N4CCCCC4)CC3)cc1S2(=O)=O
    -5	.	-0.3%	-3	.	4.9	.

(more compounds)
SMILES | CtBP-E1A inh | Sfp PPTase inh | PINK1 modulator | Six1-Eya2 inh | TRPV1 potentiator | D2 agonist | D2 PAM
Cc1c(Cl)c([N+](=O)[O-])nn1CC(=O)NCc1ccc(Cl)cc1 | 10 | 3% | 8.6% | -4 | ? | -4.1 | -1
Cn1c(CO)c(-c2ccccc2)c2cc([N+](=O)[O-])ccc21 | 1 | 7% | -1.6% | 0 | 1 | -2.6 | -7
COc1ccc(CC(=O)N/N=C/c2ccc(-c3cccc(C(=O)O)c3)o2)cc1OC | -4 | 14µM* | 0.6% | -24 | -3 | -1.4 | 0
CCCCn1c(N)c(N(CCOC)C(=O)c2ccc(N3CCCC3=O)cc2)c(=O)[nH]c1=O | 3 | . | -0.7% | 1 | -8 | -4.0 | 0
O=C(COc1ccccc1/C=C1\SC(=O)NC1=O)Nc1ccc(F)cc1 | ? | -3% | -0.2% | -18 | 5 | -2.1 | -8
COc1cc2c(cc1OC)C(C)N(C(=O)Cc1ccc(C(F)(F)F)cc1)CC2 (centres undefined) | -3 | 7% | 2.3% | -4 | 5 | -0.2 | -8
CCC(C)c1c(O)nc(SCC(=O)N2CCCCCC2)[nH]c1=O (centres undefined) | 3 | 12% | 4.1% | 7 | 2 | 3.3 | 0
C=C(C)CSc1nnc(-c2ccccc2)n1N | 12 | -9% | -1.6% | 10 | 25 | 0.5 | -5
C#CCOc1c(Cl)cc(/C=C2/C(=O)ON=C2C)cc1OCC | -3 | 79µM* | 0.5% | 3 | -5 | -3.5 | -3
COc1ccc(C(CNC(=O)c2cccc(S(=O)(=O)N3CCCC(C)C3)c2)N(C)C)cc1 (centres undefined) | -7 | . | -1.9% | -1 | -5 | 0.9 | -6
O=C(CCC1N=C2c3ccccc3N=C(SCc3cccc(Cl)c3)N2C1=O)NCc1ccco1 (centres undefined) | -9 | ? | 2.2% | -6 | 15 | -1.9 | -8
O=S1(=O)C=CC(Sc2nc3ccccc3[nH]2)C1 (centres undefined) | 2 | -7% | 1.6% | 3 | 0 | -3.5 | -2
